Bioassay records: PubChem, several laboratories
Sa RN4220 lethal: growth inhibition of S. aureus RN4220, primary screen, OD600; AID 1259311, 2017; 330,000 compounds, 0.33% hits; 16 h; inhibition, % (test concentration not listed);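 active means z-score of -3 or lower and OD600 up to 0.18 on both plates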;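 further: plate controls were untreated cells for no effect and reference antibiotic for full effect; stock transfer was 100 nL into about 80 µL; one replicate is shown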
Sa ugtP lethal: growth inhibition of ugtP-null S. aureus, primary screen, RN4220 ugtP deletion, OD600; AID 1259309, 2017; growth inhibition, % (no concentration beside the values); 330,000 compounds, 0.54% hits; 16 h; some inactives read as strong as hits;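 active means z-score under -3 and OD600 up to 0.15 on both plates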;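 further: plate controls were untreated wells for no effect and antibiotic for full effect; wells of about 80 µL received 100 nL stock; the first replicate is given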
Mtb hypoxia inh: PubChem AID 1159583 | fluorescence inhibition, % (test concentration not listed) | M. tuberculosis hypoxia-regulated fluorescent reporter, fluorescence | 300,000 compounds, 0.1% hits;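 active means 35 to 45% if threefold the growth effect, above 45% if 1.5-fold the growth effect; inactive means the rest, general growth blockers included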;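 further: wells of about 50 µL received 100 nL stock; 0% = vehicle wells and 100% = reference inhibitor wells; whole bacteria with a GFP reporter of the hypoxia response; strong numbers were not always called active; many hits fall short of the cut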
Bead autofluor: flagged as autofluorescent in microsphere protease counterscreen; compound autofluorescence counterscreen, microsphere flow cytometry; active compounds read high; fluorescence intensity (no concentration beside the values); 360,000 compounds, 3.1% hits; AID 624483;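 active means at least 3 SD above the mean of all compounds, about 16000 in these data; inconclusive means too few beads counted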;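 further: 100 nL of 1 mM stock went into each well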
BJeLR viability: MLPCN primary cell-based screen for lethality selective to Ras in HRASV12 cells; BJeLR (HRASV12) viability, CellTiter-Glo ATP luminescence, 48 h; reference of the scale not given here; 300,000 compounds, 0.17% hits; inhibition, % (concentration not given with the values);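 active means replicate mean above 50%; inconclusive means above 50% but judged a plate artefact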;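 further: 50 nL library stock added to about 25 µL; numbers are from one replicate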
PrP UTR inh: inhibition of PrP 5' UTR reporter expression; inhibition, % (no concentration beside the values); 340,000 compounds, 0.35% hits; cell-based PrP 5' UTR mRNA reporter, plate reader;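 active means every replicate at 50% or more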;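 further: 0 = median of the neutral control wells; tested in H4 reporter cells; numbers are from one replicate; inactives centre near -14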
Mtb hypoxia inh growth: recorded beside Mtb hypoxia inh, whose call it bears; growth inhibition, %; measured here: M. tuberculosis growth (absorbance);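 0% = vehicle and 100% = reference antibiotic; read after six days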
Numbers without * were called inactive; ? = inconclusive; nt = no result given.

compound	Sa RN4220 lethal	Sa ugtP lethal	Mtb hypoxia inh	Mtb hypoxia inh growth	Bead autofluor	BJeLR viability	PrP UTR inh
NC(=O)c1ccc(/C=N/O)[n+](Cc2ccccc2)c1	nt	nt	nt	nt	3907	4	-23
CCCCSc1nnc(-c2ccc(OC)cc2)n1C	9.6	3	14	11	2835	0	-37
CCC1CCc2[nH]nc(C(=O)O)c2C1 (stereo unspecified)	1.9	2	1	2	8617	7	-18
N#Cc1ccccc1Sc1ccccc1C(=O)OCC(N)=O	3.1	5	12	2	4293	4	-33
CCOC(=O)N1CCN(c2ncnc3c2cnn3-c2ccc(OC)cc2)CC1	1.0	9	0	6	3366	0	-12
CC1CN(S(=O)(=O)c2cccc(C(=O)NCc3ccc4c(c3)OCO4)c2)CC(C)O1 (stereo unspecified)	-0.1	6	8	7	4603	1	-16
O=C(CNC(=O)c1ccncc1)Nc1ccc(F)c(F)c1	-2.1	-1	6	11	4117	15	0
Cc1cccc(C)c1NC(=O)CNC(=O)c1c(C)nn(C)c1Cl	4.3	0	5	-6	3766	15	-12
CN(O)/C=C/C(=O)c1ccc(Br)cc1	-2.7	-2	-1	7	5220	0	-18
Cc1onc(-c2ccccc2)c1C(=O)NN=Cc1ccc(Br)cc1	-2.4	-3	6	-7	nt	nt	nt
CCCCN(CC)CCNC(=O)CN1C(=O)COc2ccc(S(=O)(=O)N3CCCC3)cc21	1.6	9	6	3	2492	4	1
CCOC(=O)CCCCC(=O)c1[nH]c(=O)[nH]c1C[n+]1ccccc1	1.5	0	11	0	nt	7	nt
CC(C)CC(=O)N1CCN(Cc2ccc3ccccc3c2)CC1	2.8	8	1	-3	3235	0	-15
CCOC(=O)NC1(Nc2cccc(Cl)c2)Oc2ccccc2O1	-0.9	-7	-4	-13	2555	nt	-8
Cc1ccccc1-n1c(SCC(=O)NN=Cc2sccc2C)nc2ccccc2c1=O	-9.6	5	-7	5	nt	nt	nt
CCOc1ccc(-n2ccnc(SCC(=O)Nc3ccc(CC)cc3)c2=O)cc1	1.5	7	5	6	7144	-4	-6
CCCNC(=O)COC(=O)c1n[nH]c2ccccc12	4.3	-1	-1	2	4412	14	-15
Cc1ccc(CCC(=O)Nc2ccc(S(N)(=O)=O)cc2)o1	1.8	1	nt	nt	4759	-3	-7
NC(=NOC(=O)c1cccc(F)c1)c1cccc([N+](=O)[O-])c1	-2.1	0	0	-5	nt	nt	nt
CC(C)NC(=O)CSc1nc(Cc2cccs2)nc2ccccc12	-0.7	-1	-1	-8	12548	-7	-5
Cc1nn(C(=O)N(C)C)c(C)c1CN1C(=O)c2ccccc2C1=O	3.3	-1	-5	2	3641	-5	-10
Cc1cccc(OCc2nnc(SCc3cc(=O)[nH]c4ccccc34)n2-c2ccccc2)c1	4.0	2	13	10	10390	-4	-14
COc1ccc(-c2cc(C(F)(F)F)nc(N3CCN(Cc4ccccc4)CC3)n2)cc1OC	-5.5	12	2	4	3866	-7	-8
COc1cc(C(CC(=O)Nc2ncccc2C)N2Cc3ccccc3C2=O)cc(OC)c1OC (stereo unspecified)	4.7	2	-6	7	3686	-1	-8
Cc1ccc([N+](=O)[O-])cc1NC(=O)c1ccc(CSc2ccccc2)cc1	0.8	-11	1	5	8487	-3	5
CCn1c2ccccc2c2cc(NC(=O)CSc3nnc(C4CC4)n3Cc3ccco3)ccc21	1.7	0	nt	nt	3187	-3	-24
COc1ccc(-c2nnc3ccc(SCC(=O)N4CCOCC4)nn23)cc1	1.6	12	7	3	5270	10	nt
Nc1cc(S(=O)(=O)Nc2ccccc2Cl)ccc1N1CCOCC1	10	5	9	1	5130	-17	-8
Nc1nonc1C(=O)NC(c1ccccc1)c1ccccc1	0.2	8	-1	8	5532	-13	-22
COc1cc(O)ccc1C=O	4.3	2	4	-6	5120	1	-27
COc1cc2cc(CN(CCCO)S(=O)(=O)c3ccccc3)c(=O)[nH]c2cc1OC	3.8	8	-1	7	7910	0	-16
Cc1nnc2sc(SCC(=O)N3CCCCC3)nn2c1=O	1.3	6	5	6	6092	4	-12
COCCn1c(SCc2cccc(F)c2)nc2cc(C(=O)OC)ccc2c1=O	-0.6	2	-1	2	3890	2	-18
COc1ccc(C(=O)CC2(C(=O)O)CCCCC2)cc1	-0.7	5	10	15	3972	23	-11
NC1=NN=C(N2N=C(c3ccc(Br)cc3)CC2(O)C(F)(F)F)n2ncnc2C1 (stereo unspecified)	2.0	5	6	2	3270	-5	-6
COc1ccccc1/C=C/C(=O)NCC(=O)N/N=C/c1ccccc1[N+](=O)[O-]	nt	nt	nt	nt	2526	-6	-22
COc1ccc(NS(=O)(=O)c2ccc(NC(=O)Cc3cccs3)cc2)cc1	5.3	7	-2	5	1933	-4	-14
O=C(Nc1ccncc1)C1COc2ccccc2O1 (stereo unspecified)	-8.6	1	nt	nt	4397	6	-24
O=C(CN(c1ccccc1)S(=O)(=O)c1ccc(Cl)cc1)Nc1ccccc1C(=O)N1CCCC1	-1.0	-2	1	5	9482	-9	1
CC(C)c1nc(SCC(=O)N2CCCC2)c2ccccc2n1	1.8	0	8	1	22830*	11	-25
CCn1c(=O)cc(OCC(=O)NCCc2ccc(OC)c(OC)c2)c2ccccc21	3.2	-5	6	9	2637	-6	-9
COc1ccc(OC)c(NC(=O)c2ccc(N3C(=O)C4CC=C(C)CC4C3=O)cc2)c1 (stereo unspecified)	-1.3	-2	-13	-1	2922	-6	1
CCc1noc(C)c1C(=O)N1CCN(S(=O)(=O)c2ccc(C)cc2C)CC1	-3.5	-3	-4	1	nt	-8	-6
Cc1ccccc1C(=O)N1CCC(C(=O)Nc2ccc(S(=O)(=O)N(C)C(C)C)cc2)CC1	-0.8	-4	5	12	6402	4	-24
COc1ccccc1CNS(=O)(=O)c1c(C)nc2scc(C)n2c1=O	1.8	6	11	3	7185	-8	-4
CCC(=O)Nc1cc(C)c(NC(=O)c2ccccc2OC)cn1	1.0	0	4	5	4573	3	-10
CC(=O)Nc1cccc(NC(=O)CSc2nc(=O)n(Cc3ccncc3)c3c2CCC3)c1	2.5	2	2	4	?	-8	-17
COc1ccc(N=Nc2cc(OC)c(N)cc2OC)cc1	-0.8	0	9	3	3937	nt	-27

Fetched by structure from the entries so far (six):
compound	Sa RN4220 lethal	Sa ugtP lethal	Mtb hypoxia inh	Mtb hypoxia inh growth	Bead autofluor	BJeLR viability	PrP UTR inh
COc1ccc(NS(=O)(=O)c2ccc(NC(=O)Cc3cccs3)cc2)cc1	5.3	7	-2	5	1933	-4	-14
Cc1ccccc1C(=O)N1CCC(C(=O)Nc2ccc(S(=O)(=O)N(C)C(C)C)cc2)CC1	-0.8	-4	5	12	6402	4	-24
CC(C)c1nc(SCC(=O)N2CCCC2)c2ccccc2n1	1.8	0	8	1	22830*	11	-25
COc1ccc(N=Nc2cc(OC)c(N)cc2OC)cc1	-0.8	0	9	3	3937	nt	-27
O=C(CN(c1ccccc1)S(=O)(=O)c1ccc(Cl)cc1)Nc1ccccc1C(=O)N1CCCC1	-1.0	-2	1	5	9482	-9	1
CCC(=O)Nc1cc(C)c(NC(=O)c2ccccc2OC)cn1	1.0	0	4	5	4573	3	-10

Further results follow:
compound	Sa RN4220 lethal	Sa ugtP lethal	Mtb hypoxia inh	Mtb hypoxia inh growth	Bead autofluor	BJeLR viability	PrP UTR inh
CCCCNC(=S)NN=Cc1ccc(C#N)cc1	1.8	1	4	2	nt	nt	nt
C=CCNC(=O)N[C@@H](CCSC)C(=O)OC	5.5	1	8	6	10389	-4	-15
CC(=O)Nc1ccc(NC(=O)C(C)Sc2nnc(-c3ccc4c(c3)OCO4)o2)cc1 (stereo unspecified)	0.4	2	8	7	3525	nt	-32
COc1ccc(NC(=O)CNC(=O)C2CCCCC2)cc1OC	3.5	-1	3	2	2664	nt	-10
COc1ccc2c(c1)[nH]c1c(=O)n(N=Cc3ccc(OC)c(CN4CCCCC4)c3)cnc12	8.9	3	10	7	nt	nt	nt
Cc1cccc(NC(=O)c2c(C)nc3ccccn23)c1	6.3	-4	9	10	9425	-3	-17
Clc1ccc2sc(C3CCNCC3)nc2c1	2.0	3	19	2	3562	-4	-64
CC(C)(C)c1ccc(/C=N/OCC(=O)NCc2ccc(F)cc2)cc1	nt	nt	nt	nt	1985	0	-6
O=P(c1ccccc1)(c1ccccc1)C(O)c1ccncc1 (stereo unspecified)	3.8	3	0	-3	8510	-4	-5
CCCCNC(=S)N=Nc1c(O)n(Cc2ccccc2)c2ccccc12	-8.5	-6	3	7	1994	-4	-9
O=C(Nc1ccccc1C(F)(F)F)N1CCCCCC1	4.9	0	-1	7	8624	-3	-1
NS(=O)(=O)c1ccc(CCNC(=O)c2cc(-c3cccs3)nc3ccccc23)cc1	1.4	-1	9	2	3869	11	-11

Among those listed so far, 2 have a COOH group:
compound	Sa RN4220 lethal	Sa ugtP lethal	Mtb hypoxia inh	Mtb hypoxia inh growth	Bead autofluor	BJeLR viability	PrP UTR inh
CCC1CCc2[nH]nc(C(=O)O)c2C1 (stereo unspecified)	1.9	2	1	2	8617	7	-18
COc1ccc(C(=O)CC2(C(=O)O)CCCCC2)cc1	-0.7	5	10	15	3972	23	-11

New compounds follow:
compound	Sa RN4220 lethal	Sa ugtP lethal	Mtb hypoxia inh	Mtb hypoxia inh growth	Bead autofluor	BJeLR viability	PrP UTR inh
O=c1c2ccccc2nc(-c2ccco2)n1-c1nc2ccccc2s1	3.2	0	-8	-6	3283	-4	-6
Cc1ccc(NN=Cc2ccc3c(c2)OCCO3)cc1Cl	-0.7	6	3	3	nt	nt	nt
COc1ccc(NC(=O)COC(=O)CCCOc2ccc(Cl)cc2Cl)cc1	4.7	6	10	5	3278	-4	-24
CS(=O)(=O)NN1C(=O)c2ccccc2NC1c1ccccc1F (stereo unspecified)	0.7	-6	0	7	3702	7	-10
Cc1ccc(NC(=O)Nc2ccon2)cc1	-0.7	-3	-3	3	5590	-6	-21
O=C(O)c1cccc(Nc2ccc([N+](=O)[O-])cn2)c1	2.4	1	-8	4	3298	-8	-11
CCOc1ccccc1N1CCN(C(=O)c2ccc3nc(N)sc3c2)CC1	3.3	-2	7	6	?	nt	-6
COc1ccccc1CC(=O)Nc1ccc(Cl)cc1C(=O)O	0.0	-1	-9	-7	?	2	-11
CC(NC(=O)Nc1ccccc1)c1ccccc1 (stereo unspecified)	1.2	0	nt	nt	3432	5	-16
CC1=NNC(=O)C1Cc1ccccc1 (stereo unspecified)	1.2	4	12	11	nt	-1	nt
COc1ccc(C(=O)c2ccc(N3CCN(C(=O)c4ccc(F)cc4)CC3)c(F)c2)cc1Br	0.2	-10	2	5	2541	15	-8
Cc1cc(Oc2ccccc2)nc(SCC(=O)Nc2ccc(Cl)c(Cl)c2)n1	-12	-17	13	-2	9895	-11	-29
Cc1ccc(S(=O)(=O)CC(=O)N2CCCCCC2)cc1	-2.4	-2	8	-1	3878	-1	-11
COc1ccc(-c2nc(NC3=NCCCCC3)sc2C)cc1	6.9	4	8	4	2179	6	-6
C/C(=N\NC(=O)c1cc(C)[nH]n1)C(C)(C)C	nt	nt	nt	nt	2295	-5	-13
COC(=O)C1=C(c2cc3ccccc3s2)C[C@@H]2CC[C@H]1N2C(=O)NC(C)C	nt	nt	nt	nt	3012	-1	-19
ON=C1CC2(CC(=NO)C1=NO)OCCO2	5.3	-5	5	5	nt	nt	nt
N#CCCn1cc(C(=O)O)c(-c2cccc([N+](=O)[O-])c2)n1	3.6	3	-9	-11	4361	5	-22
CC(=O)N1CCC(=NNC(=O)c2cccs2)CC1	nt	nt	nt	nt	7668	0	2
CC1CCN(C(=S)Nc2ccc(SC(F)F)cc2)CC1	2.9	-2	6	3	1945	-17	-67
C=CCC1NS(=O)(=O)OCC1C(C)C (stereo unspecified)	nt	nt	nt	nt	4003	-2	-16
